From PubChem BioAssay
Rango-impB inh – prevents formation of the Rango-importin beta complex; 340,000 compounds, 0.031% hits; Rango CFP/YFP FRET sensor + importin beta, 45 min; Potency, µM (top dose mostly 92.2 µM), for inactives: top-dose inhibition of complex formation; active = rising FRET ratio curve, often small or poorly fitted; inconclusive = mostly compound fluorescence or quenching in the first reads; inactive = flat curves in all reads;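 further: potency means the concentration at half of the fitted maximal effect; 0% = DMSO wells and 100% = buffer wells lacking importin beta; nearly all actives have a fitted effect of over 15% in size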
Target sequence (Q14974 whole entry, looked up): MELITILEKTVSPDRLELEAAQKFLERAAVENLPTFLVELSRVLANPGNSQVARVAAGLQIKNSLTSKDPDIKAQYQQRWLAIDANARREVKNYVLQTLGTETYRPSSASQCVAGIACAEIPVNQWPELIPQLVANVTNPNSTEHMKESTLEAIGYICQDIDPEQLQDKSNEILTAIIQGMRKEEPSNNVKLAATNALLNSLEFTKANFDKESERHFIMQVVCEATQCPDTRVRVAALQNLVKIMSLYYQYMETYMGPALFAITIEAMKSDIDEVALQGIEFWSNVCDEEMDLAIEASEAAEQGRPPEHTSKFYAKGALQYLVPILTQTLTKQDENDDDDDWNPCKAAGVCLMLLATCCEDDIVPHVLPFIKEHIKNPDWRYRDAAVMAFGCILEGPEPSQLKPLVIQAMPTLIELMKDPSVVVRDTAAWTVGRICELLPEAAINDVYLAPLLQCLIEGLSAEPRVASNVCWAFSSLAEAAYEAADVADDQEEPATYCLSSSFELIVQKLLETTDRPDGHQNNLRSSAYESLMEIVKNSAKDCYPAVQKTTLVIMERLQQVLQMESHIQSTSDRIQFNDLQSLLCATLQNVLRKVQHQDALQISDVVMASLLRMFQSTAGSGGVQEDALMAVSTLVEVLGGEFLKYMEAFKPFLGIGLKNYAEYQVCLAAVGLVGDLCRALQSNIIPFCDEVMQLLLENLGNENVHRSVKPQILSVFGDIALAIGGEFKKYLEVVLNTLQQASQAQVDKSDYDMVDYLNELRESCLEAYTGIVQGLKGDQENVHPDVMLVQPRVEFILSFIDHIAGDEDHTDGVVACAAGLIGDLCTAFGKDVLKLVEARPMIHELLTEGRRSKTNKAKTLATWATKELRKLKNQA
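FRET biosensor (snurportin 1 IBB flanked by EYFP and cerulean), 50 nM, with compound 5 min, then 0.125 microM importin beta in PBS, 1 mM DTT, 0.02% Tween-20, 0.1% BSA. CFP/YFP ratio read after 45 min at room temperature; pre-read flags interference.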
GLA inh pH 4.5 – blocks human alpha-galactosidase A at pH 4.5; P06280; purified enzyme, 4-MU-alpha-Gal fluorescence, pH 4.5; activity change, negative = inhibition, % at 105 µM; 230,000 tested, under 10 active; AID 1467; inconclusive = small, poorly fitted or top-dose-only inhibition, or a rising curve; inactive = flat fitted curve, though single readings scatter; no compound was filed as active;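 further: 0% = full activity with enzyme and -100% = basal without enzyme; dose as in the result columns while the protocol names 77 µM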
Rango dissoc inh – inhibitors of RanGTP-induced Rango-importin beta complex dissociation | AID 540253 | Biochemical FRET Rango-importin beta, RanGTP-induced dissociation | O95149+P62826 | 340,000 compounds, 0.071% hits | Potency, µM (top dose mostly 46.1 µM), for the others: top-dose activity change, negative = inhibition; active means falling FRET ratio curve, often poorly fitted, with flat reads before Ran was added; inconclusive means other falling curves, or compound fluorescence or quenching; inactive means flat or rising ratio curve;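 further: potency means the concentration at half of the fitted maximal effect; % of control where 0% means no effect; nearly all actives have a fitted effect of over 45% in size; -100% = wells without RanGTP and RCC1; the record marks most hits as doubtful in a second field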
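Rango FRET biosensor (snurportin-1 IBB flanked by N-terminal EYFP and C-terminal CFP10) at 0.1 uM, with 0.25 uM importin beta in PBS, 1mM DTT, 0.02% Tween-20, 0.1% BSA. 0.6 uM Ran, 2mM GTP and 0.2 uM RCC1 were then added for 45 min at room temperature. Inhibition read as loss of FRET rise.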
miR-21 FLuc – miR-21 reporter, rising signal | HeLa miR-21 FLuc reporter, luciferase, 48 h | Potency, µM (doses to about 38.3 µM), inactives show at the top dose reporter change, positive = more light | 340,000 tested, under 10 active; active = well fitted rising curve with a large enough effect; inconclusive = small, poorly fitted or top-dose-only effect; inactive = no such curve, though single readings can be large or run the other way;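 further: % of control where 0% means no effect; miR-21 action dims this reporter so a rising signal means less miR-21 action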
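Using DMEM plus 10% FBS, HeLa miR-21-FLuc cells are incubated with test compounds (final up to about 40uM) for 48 hours; firefly luciferase signal is then imaged following reagent-mediated lysis.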
Numbers without * were called inactive; ? = inconclusive; nt = not tested or not shown. These rows are one share of the data, so the mix of outcomes need not match the whole.

Sequence of screens: Rango-impB inh	GLA inh pH 4.5	Rango dissoc inh	miR-21 FLuc
- Nc1nnc(CCS(=O)(=O)c2cc(Cl)ccc2Cl)s1
  -3.5%	0	7%	-4%
- CCOc1ccc2nc(NCCNC(=O)Nc3cccc(C)c3)c(C#N)cc2c1
  ?	4	?	-5%
- COc1ccc(C(=O)OC(C)CN2CCOCC2)cc1 (stereo not drawn)
  -2.1%	nt	0%	-15%
- O=C1O/C(=C/c2ccccc2)c2ccccc21
  1.5%	3	0%	-6%
- Cc1c(CCO)c(=O)[nH]n1S(=O)(=O)c1cccc(C(F)(F)F)c1
  -2.3%	nt	-3%	0%
- COc1cc(OC)c(C(=O)N2CCN(c3ccccn3)CC2)cc1OC
  1.4%	nt	-11%	2%
- CCOC(=O)c1[nH]c2c(c1-c1ccccc1)C(=O)CC(c1ccccc1)C2 (stereo not drawn)
  -3.5%	5	-9%	-27%
- Cc1cccc(NC(=O)NNC(=O)c2ccc3ccccc3c2)c1
  4.7%	nt	3%	-16%
- O=C(CC(n1cncn1)C(Cl)(Cl)Cl)c1ccc([N+](=O)[O-])cc1 (stereo not drawn)
  2.9%	nt	-5%	0%
- CCC(C)(C)NC(=O)CCn1c(-c2ccccc2)cc(C(C)=O)c1C
  9.9%	-2	10%	-7%
- Cc1ccc(CN(C)C(=O)COc2ccc(S(=O)(=O)N3CCCC3)cc2[N+](=O)[O-])c(C)c1
  -1.1%	nt	-13%	nt
- COC(=O)c1ccc2c(c1)C(=O)/C(=C/c1ccc(O)cc1)O2
  ?	-3	?	-20%
- C[C@@]12C(=O)Nc3ccc(F)cc3C(=O)N1[C@H]1c3cc(Br)ccc3OC[C@@H]1[C@@H]2c1ccccc1
  0.0%	nt	-1%	nt
- COc1cccc(C(=O)N(c2ccccc2)C2C=CS(=O)(=O)C2)c1 (stereo not drawn)
  1.8%	0	18%	-1%
- Cc1cc(SCC(=O)Nc2cccc(S(=O)(=O)NC3=NCCCCC3)c2)c(C)cc1Br
  -0.1%	-6	-6%	16%
- CCN(CC)S(=O)(=O)c1ccc2[nH]cc(C(=O)NCCCN3CCCCC3)c(=O)c2c1
  2.7%	5	28%	-10%
- CCCCCCC1NC(C(=O)O)CS1 (stereo not drawn)
  5.4%	-1	1%	-8%
- CC(C)(C)C(=O)COC(=O)c1c2c(nc3ccccc13)CCC2
  -0.9%	0	-6%	4%
- O=C(CCc1nc(-c2ccc(Cl)cc2)no1)NCC1CCCO1 (stereo not drawn)
  0.8%	3	2%	0%
- Cc1ccc(-c2nnc(N3CCOCC3)c3ccccc23)cc1S(=O)(=O)NCc1cccnc1
  ?	7	-22%	-2%
- Cc1ccc(OCC(=O)NC2CCCc3ccccc32)c(C)c1 (stereo not drawn)
  -2.4%	-6	16%	1%
- CC(=O)c1ccc(NC(=O)/C(=C\c2ccco2)NC(=O)c2ccco2)cc1
  0.0%	nt	?	0%
- OCC1(Cc2cccc(F)c2)CCN(Cc2cccc3nccnc23)CC1
  -4.9%	-6	0%	-3%
- O=C(CN1CCN(Cc2ccccc2F)C1=O)NC1CCCC1
  2.1%	6	4%	-3%
- COc1ccc(N(C(=O)c2cnccn2)C(C(=O)NC2CCCCC2)c2cc(OC)c(OC)c(OC)c2)cc1 (stereo not drawn)
  ?	nt	6%	0%
- CCn1c(=O)c2cc(C(=O)N3CCN(C(=O)c4ccco4)CC3)sc2c2ccccc21
  nt	-15	nt	-4%
- Cc1[nH]nc2c1C1(CCN(C(=O)OCc3ccccc3)CC1)C(C#N)=C(N)O2
  1.8%	-3	11%	-12%
- CNc1cc(CSC)nc(SCc2ccc(Cl)cc2Cl)n1
  2.3%	-20	15%	-12%
- CCN(CC)c1ccc(C(=O)OCC(=O)c2ccco2)cc1
  3.5%	-17	6%	-26%
- CCSc1nc2sc3c(c2c2[n+]1CC(CBr)O2)CCCC3 (stereo not drawn)
  1.7%	-6	4%	-48%

A few values from the list.
In miR-21 FLuc, Nc1nnc(CCS(=O)(=O)c2cc(Cl)ccc2Cl)s1 shows -4%
In Rango-impB inh, CCC(C)(C)NC(=O)CCn1c(-c2ccccc2)cc(C(C)=O)c1C shows 9.9%
In miR-21 FLuc, CNc1cc(CSC)nc(SCc2ccc(Cl)cc2Cl)n1 shows -12%
In Rango-impB inh, COc1ccc(C(=O)OC(C)CN2CCOCC2)cc1 (stereo not drawn) shows -2.1%

Remaining list, next part.
Sequence of screens: Rango-impB inh	GLA inh pH 4.5	Rango dissoc inh	miR-21 FLuc
- CC(C)CC(=O)N1CCN(Cc2cccc(Cl)c2)CC1
  -5.0%	nt	-18%	0%
- Cc1cc(C)cc(N=C(NO)c2cccc([N+](=O)[O-])c2)c1
  2.7%	2	-21%	-8%
- NCC(=O)NNC(=O)OCC1c2ccccc2-c2ccccc21
  1.3%	nt	3%	-4%
- CCOc1ccc(NC(=O)CN(C)C(=O)c2csc3c2CCCC3)cc1OCC
  -0.2%	nt	-1%	nt
- CC1N(C(=O)N(C)C)CCN1S(=O)(=O)c1ccccc1 (stereo not drawn)
  -0.5%	nt	-11%	0%
- [O-]/C(=C(\C(=S)Nc1ccccc1F)[n+]1ccccc1)c1ccc(-c2ccccc2)cc1
  -0.8%	1	0%	-21%
- OCC1(Cc2ccccc2)CCN(Cc2cnn(-c3ccccc3F)c2)CC1
  -1.5%	-10	-3%	-10%
- CCOc1ccc(N(C)S(=O)(=O)c2ccc(C)c(C(=O)OCC(=O)c3c[nH]c4ccccc34)c2)cc1
  0.1%	-22	1%	-3%
- CCOC(=O)c1c(NC(=O)CCl)sc(CN(C)C)c1-c1ccccc1
  -1.2%	-3	-2%	29%
- COc1ccc(C2=NN(C(=O)c3ccccc3)C(c3ccc(OC)c(OC)c3)C2)c(O)c1 (stereo not drawn)
  0.2%	nt	-1%	-3%
- Cc1cc(NS(=O)(=O)c2ccc(NC(=O)C(c3ccccc3)c3ccccc3)cc2)no1
  0.8%	0	1%	-3%
- O=C(Nc1nnc(C23CC4CC(CC(C4)C2)C3)s1)c1ccc(N2C(=O)CCC2=O)cc1
  -1.9%	3	-5%	-6%
- Cc1ccc(-c2cc(C(=O)N/N=C/C=C/c3ccccc3)n[nH]2)o1
  2.7%	-7	-5%	0%
- Cc1ccc(NC(=O)CN2C(=O)N/C(=C/c3cc(C)n(-c4ccc(C(=O)O)cc4)c3C)C2=O)cc1
  ?	-10	?	-4%
- O=C1/C(=C/c2ccc(F)c(F)c2)CSc2sccc21
  4.8%	2	1%	-19%
- CCN1CCN(C(=O)NC(c2ccc(C)c(F)c2)C(Cl)Cl)CC1 (stereo not drawn)
  1.0%	-9	-6%	-2%
- CCOc1cc2c3c(c1)C(C)CC(C)(C)N3C(=O)C2=O (stereo not drawn)
  0.9%	6	0%	-2%
- CC(Sc1ncccn1)C(=O)Nc1ccc2c(c1)OCCO2 (stereo not drawn)
  1.4%	nt	-9%	nt
- COc1cc(/C=N/n2c(-c3ccccc3)n[nH]c2=S)cc(OC)c1O
  ?	-2	?	-5%
- CC(=O)c1ccc(N2CCN(C3CCC(C(C)(C)C)CC3)CC2)cc1 (stereo not drawn)
  -2.5%	nt	7%	-4%
- Cc1ccccc1NC(=O)/C(C#N)=C/c1ccc(-c2ccc(Cl)c(C(=O)O)c2)o1
  ?	nt	?	-36%
- Cc1ccn(-c2ccc(NC(=O)c3cccs3)cc2)n1
  3.3%	nt	11%	-41%
- Cc1noc(C)c1S(=O)(=O)N1CCC(C(=O)N2CCN(c3ccccc3Cl)CC2)CC1
  -0.4%	4	-18%	13%
- CCOC(=O)N1CCN(S(=O)(=O)c2c[nH]c(C(=O)OC)c2)CC1
  0.9%	nt	-3%	0%
- CC1(C)CC(=O)C(C=NCCN2CCN(C3CC(=O)N(c4ccc(Cl)c(Cl)c4)C3=O)CC2)=C(O)C1 (stereo not drawn)
  -0.3%	3	-8%	-1%
- CCN(CC)CCCNc1nc2cc(OC)c(OC)cc2c2nc(-c3ccccc3)nn12
  -0.1%	-8	5%	18%
- Cc1ccc(C)c(-n2c(SCC(=O)N3CCC(C(=O)O)CC3)nnc2-c2cccc(Cl)c2)c1
  3.4%	-20	28%	-2%
- NS(=O)(=O)c1ccc(NC(=O)c2ccc(CSc3ccccc3)o2)cc1
  0.2%	nt	-9%	-1%
- CC1CN(C(C)C)C(=S)N(c2ccccc2)C1=O (stereo not drawn)
  -2.6%	nt	11%	nt
- CCOc1ccc2c(c1)nc(SCC(=O)c1ccc(Br)s1)n2C
  2.7%	-24	-8%	-10%
- C[C@]12C=CC(=O)C=C1CCC1C2CC[C@@]2(C)C1CCC21OCCO1 (stereo partly drawn)
  4.3%	nt	-9%	nt
- NC(=O)COc1ccc(NC(=O)OCc2ccccc2)cc1
  0.3%	-8	13%	-41%
- COCCn1c(SCC(=O)Nc2ccc(OC)c(S(N)(=O)=O)c2)nc2ccccc2c1=O
  3.2%	nt	13%	nt
- CCN(c1ccccc1)S(=O)(=O)c1ccc(C(=O)Nc2cccc(NC(C)=O)c2)cc1
  3.8%	nt	2%	nt
- CCCCN1Cc2ccccc2Oc2cc(Br)ccc2S1(=O)=O
  1.1%	nt	0%	nt
- CCN1C(=O)N[C@@H](c2ccccc2)[C@H](C(C)=O)[C@H]1C
  -4.8%	12	-10%	nt
- COC(=O)c1ccc(COC(=O)C(CCSC)NC(=O)COc2ccccc2)cc1 (stereo not drawn)
  1.3%	nt	-1%	0%
- COc1ccc2c(c1OC)C(=O)OC2Nc1nc(-c2cc3cc(Br)ccc3oc2=O)cs1 (stereo not drawn)
  ?	0	?	-81%
- N#Cc1ccc(NCC(=O)N2CCN(S(=O)(=O)c3ccccc3)CC2)cc1
  -1.1%	nt	3%	nt
- CCn1c(C)nc2cc(C(=O)NNS(=O)(=O)c3ccccc3F)ccc21
  -2.1%	0	-6%	-29%
- COCCCNC(=O)CC1C[C@H](C(=O)N2CCCCC2)[C@@]2(C)c3[nH]c4ccccc4c3CCN2C1=O (stereo partly drawn)
  3.3%	nt	1%	nt
- COc1cc(-c2ccc3oc(-c4cccc(C)c4)c(C#CC4(O)CCCCC4)c3c2)cc(OC)c1OC
  3.3%	nt	-9%	nt
- CCCCNC(=O)COC(=O)c1ccccc1F
  -0.3%	5	20%	-1%
- CCCCCN(C(=O)CCC(=O)OC(C)C(=O)c1ccccc1)c1c(N)n(CCCC)c(=O)[nH]c1=O (stereo not drawn)
  -2.3%	nt	18%	nt
- COc1ccc2nc(SCC(=O)Nc3cc(C)on3)[nH]c2c1
  -0.2%	-1	1%	-5%
- Cn1nnnc1SCC(=O)Nc1ccc(S(=O)(=O)N2CCOCC2)cc1
  0.1%	2	4%	1%
- Cn1c(CSc2ncccn2)nnc1SCC(=O)N1CCCc2ccccc21
  1.3%	14	-8%	2%
- CCC(c1nnnn1CCOC)N1CCN(C(=O)c2ccco2)CC1 (stereo not drawn)
  4.8%	5	1%	0%
- Cc1ccc2nc(C)cc(Cl)c2c1
  0.4%	-2	-10%	0%
- COc1ccc(-c2noc(-c3ccccc3-c3ccccc3)n2)cc1OC
  -3.0%	3	-2%	-12%
- COc1ccc(-c2nnc(SCCC(=O)O)n2-c2ccccc2)cc1
  4.1%	-4	-2%	-6%
- O=C(CSc1nc2ccccc2s1)Nc1ccc(Cl)c(S(=O)(=O)N2CCOCC2)c1
  -2.9%	-4	-10%	5%
- O=C(OCC(=O)N1CCCC1)c1ccc(S(=O)(=O)N2CCOCC2)cc1
  4.6%	-2	0%	2%

Whole records from above. Order of screens: Rango-impB inh	GLA inh pH 4.5	Rango dissoc inh	miR-21 FLuc
Listed for Cc1ccc2nc(C)cc(Cl)c2c1 → 0.4%	-2	-10%	0%
Listed for COc1cc(/C=N/n2c(-c3ccccc3)n[nH]c2=S)cc(OC)c1O → ?	-2	?	-5%
Listed for C[C@@]12C(=O)Nc3ccc(F)cc3C(=O)N1[C@H]1c3cc(Br)ccc3OC[C@@H]1[C@@H]2c1ccccc1 → 0.0%	nt	-1%	nt
